From PubChem
MARV entry inh: qHTS for inhibitors of binding or entry into cells for Marburg Virus | Marburg virus pseudotyped entry inhibition, cell reporter; control for the full effect not named in the record; about a third of the inactives were read at about 46 µM | Potency, µM (highest dose often 37.8 µM), without a hit: top-dose activity change, negative = inhibition, most hits filed as inhibitors | 300,000 compounds, 1.8% hits | AID 540276, 2011; active = well fitted inhibition curve with a large enough effect; inconclusive = small, poorly fitted or top-dose-only effect, or effect the other way; inactive = flat fitted curve, though single readings scatter; tested in HEK293 cells; about a fifth of its hits are not listed in these tables; note: % is set by controls: 0 for no effect and ±100 for the full control effect; luciferase read-out
Cruzain inh Det: qHTS Assay for Promiscuous and Specific Inhibitors of Cruzain (with detergent); Cruzipain (Trypanosoma cruzi), P25779; purified cruzain, Z-FR-AMC fluorescence, 0.01% Triton; Potency, µM, for inactives: max response, negative = inhibition, most hits filed as inhibitors; 200,000 compounds, 0.43% hits; AID 1478, 2009;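 note: plate controls were neutral wells for no effect and buffer without enzyme for full effect; nearly all actives have a fitted effect of over 40% in size; top concentration of the series not given in the record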
Target sequence (P25779 123-467 limits assumed): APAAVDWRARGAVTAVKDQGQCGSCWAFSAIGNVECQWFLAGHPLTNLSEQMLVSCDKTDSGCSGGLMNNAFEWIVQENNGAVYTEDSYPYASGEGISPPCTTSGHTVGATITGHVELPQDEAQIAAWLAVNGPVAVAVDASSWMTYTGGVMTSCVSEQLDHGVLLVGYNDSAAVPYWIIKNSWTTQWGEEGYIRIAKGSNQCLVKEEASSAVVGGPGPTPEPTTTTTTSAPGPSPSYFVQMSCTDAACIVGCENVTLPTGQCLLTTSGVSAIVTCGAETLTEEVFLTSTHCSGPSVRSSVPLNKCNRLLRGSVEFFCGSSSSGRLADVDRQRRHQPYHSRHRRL
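In this qHTS format, compounds are incubated with 1.5 nM cruzain for 15 min at room temperature before 2 uM Z-FR-AMC is added. Release of AMC is followed at 360/450 nm, and progress is taken as the 60 s fluorescence difference.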
Cruzain noTriton: qHTS Assay for Promiscuous and Specific Inhibitors of Cruzain (without detergent) | Cruzipain (Trypanosoma cruzi), P25779 | purified cruzain, Z-FR-AMC fluorescence, no detergent | Potency, µM, inactives show max response, negative = inhibition, usual class: inhibitors | 200,000 compounds, 2.3% hits;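 note: plate controls were enzyme without inhibitor for no effect and buffer without enzyme for full effect; nearly all actives have a fitted effect of over 40% in size; top concentration of the series not given in the record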
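Detergent-free condition (0.00005% Triton X-100) in acetate buffer pH 5.5 with DTT. 1.5 nM enzyme and compound were pre-mixed 15 min, then 2 uM Z-FR-AMC substrate added; reaction progress from fluorescence change between first and third reads (60 s).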
RE007 growth inh: qHTS Assay for Inhibitors of the HIV-1 protein Vpr. 360,000 compounds, 0.21% hits. AID 651644, 2012. Potency, µM (doses to about 92.2 µM), inactives show top-dose activity change, negative = less growth. S. pombe RE007 Vpr strain, BacTiter-Glo ATP luminescence, 24 h; control for the full effect not named in the record; active = well fitted falling curve with a large enough effect; inconclusive = small, poorly fitted or top-dose-only effect; inactive = no such curve, though single readings can be large or run the other way;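 note: % is set by controls: 0 for no effect and ±100 for the full control effect; nearly all actives have a fitted effect of over 50% in size; the assay follows cell death caused by Vpr and the record does not say whether a fall means rescue or toxicity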
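Fission yeast RE007 carrying one integrated HIV-1 vpr copy, seeded at OD 0.01 in PMG+AL medium with 23 nL pinned compound. Grown 24 h at 30 degrees; viability read by BacTiter-Glo luminescence after 5 min.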
SARS PLP yeast: qHTS of Yeast-based Assay for SARS-CoV PLP. Potency, µM (doses to about 32.9 µM), for inactives: at the top dose activity, positive = growth rescue. 330,000 compounds, 0.19% hits. AID 485353, 2010. S. cerevisiae expressing SARS-CoV PLpro, growth rescue; control for the full effect not named in the record; active means well fitted rising curve with a large enough effect; inconclusive means small, poorly fitted or top-dose-only effect; inactive means no such curve, though single readings can be large or run the other way; note: 0% is about no effect; nearly all actives have a fitted effect of over 55% in size; growth read by luminescence after 48 h
2A StopGo: High Throughput Screening for Foot and Mouth Disease Virus Antivirals; Potency, µM (series often up to 57.9 µM), inactives show at the top dose signal change, negative = less light; human cells with a luciferase reporter of 2A StopGo recoding; control for the full effect not named in the record; 410,000 compounds, 1.2% hits; AID 1159524, 2015; active = well fitted falling curve with a large enough effect; inconclusive = small, poorly fitted or top-dose-only effect; inactive = no such curve, though single readings can be large or run the other way; tested in HEK293T cells; note: % is set by controls: 0 for no effect and ±100 for the full control effect; nearly all actives have a fitted effect of over 45% in size; luciferase light after 4 h
Lassa entry inh: qHTS for Inhibitors of binding or entry into cells for Lassa Virus; Lassa virus pseudotype entry inhibition, cell reporter; control for the full effect not named in the record; Potency, µM (series often up to 37.9 µM), without a hit: top-dose activity change, negative = inhibition, most hits filed as inhibitors; 300,000 compounds, 1.2% hits; AID 540256, 2011; active means well fitted inhibition curve with a large enough effect; inconclusive means small, poorly fitted or top-dose-only effect, or effect the other way; inactive means flat fitted curve, though single readings scatter; tested in HEK293 cells; note: % is set by controls: 0 for no effect and ±100 for the full control effect; nearly all actives have a fitted effect of over 50% in size; luciferase read-out
NS1 function inh: qHTS Assay for Inhibitors of Influenza NS1 Protein Function | S. cerevisiae slowed by influenza A NS1, growth recovery by OD600 | Potency, µM (top dose mostly 46.1 µM), for inactives: at the top dose activity, positive = more growth | 270,000 compounds, 0.4% hits | AID 2326, 2010; active means well fitted rising curve with a large enough effect; inconclusive means small, poorly fitted or top-dose-only effect; inactive means no such curve, though single readings can be large or run the other way; note: nearly all actives have a fitted effect of over 50% in size
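A cell-based growth assay was used: compounds that relieve NS1-induced slow growth of budding yeast raise OD600. Assay medium was yeast nitrogen base with ammonium sulphate and -URA supplement, pH 6.0, with 2% galactose.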
* marks the source's active call; other numbers are inactive results; ? = inconclusive; · = not tested or not shown; & = joins results of further samples; [ ] = remark or other dose. Unless noted, calls come from the whole dose curve; as a rule, active = well fitted curve in the direction sought with a large enough effect; inconclusive = small, poorly fitted or top-dose-only effect, or another doubt; inactive = no such curve, though single readings can be large; an effect the other way counts as inactive or inconclusive. Potency is the fitted concentration of half-maximal effect. Rows are unselected; about 4.7% have a hit in one of these screens.

SMILES,MARV entry inh,Cruzain inh Det,Cruzain noTriton,RE007 growth inh,SARS PLP yeast,2A StopGo,Lassa entry inh,NS1 function inh
O=C(NCCCCCCNC(=O)N1CCCCCC1)N1CCCCCC1,10%,5.1%,17%,-4%,5%,2%,4%,8%
COc1ccc(CCNC(=O)CS(=O)Cc2nc(-c3ccccc3Cl)oc2C)cc1OC (stereo unspecified),·,·,·,-26%,1%,-13%,·,14%
O=C(NCCCNc1ccc(C(F)(F)F)cc1[N+](=O)[O-])c1cc(F)c(F)cc1Cl,?,-14%,-5%,-8%,0%,-25%,-12%,-5%
Oc1ccc(N2CCN(C(=S)NCCc3ccccc3)CC2)cc1,?,-3.7%,1%,7%,-26%,65%[activator],?,-117%
CCOC(=O)c1sc(=S)n(-c2ccc(OC)cc2)c1C,11%[46.1 µM],·,·,4%,0%,-14%,-15%,-2%
Cc1ccc(C)c(-c2ccc(=O)n(C(C)C(=O)Nc3ccccc3C(F)(F)F)n2)c1 (stereo unspecified),?,-7.4%,?,·,·,-26%,-5%[46.1 µM],·
Cc1nc(SCC(O)CCl)c([N+](=O)[O-])[nH]1 (stereo unspecified),-3%,-2.3%,4%,20%,-3%,-10%,1%,8%
O=C(COC(=O)/C=C/c1ccc(F)cc1)NC1CCCC1,-3%,·,·,14%,-1%,-5%,-16%,·
Cc1ccc(C)c(NC(=S)N(Cc2ccco2)C(C)c2cccs2)c1 (stereo unspecified),-20%[46.1 µM],·,·,-8%,17%,-6%,1%[46.1 µM],·
CN(CC(=O)NCCc1ccc(S(N)(=O)=O)cc1)c1ccccc1,2%[46.1 µM],·,·,-18%,1%,1%,0%,·
COc1ccccc1CNS(=O)(=O)c1c(C(=O)N2CCCCC2)c(C)n(C)c1C,12%[46.1 µM],·,·,11%,-5%,23%,15%[46.1 µM],3%
COc1ccccc1CNC(=O)CCNS(=O)(=O)c1cccc2nonc12,5%[46.1 µM],·,·,-2%,-13%,?,-12%,17%
Nc1ccccc1C(=O)NC(=O)Nc1ccc(Oc2ncc(Br)cn2)c(Cl)c1,-20%,·,·,-3%,·,-18%,?,·
N#Cc1c(NC(=O)/C=C/c2ccco2)sc2c1CCCC2,-16%,-11%,12%,-29%,-2%,74%[activator],?,13%
COc1cccc(CN(C)Cc2nc3cc(C(F)(F)F)ccc3c(=O)[nH]2)c1,-4%[46.1 µM],·,·,1%,0%,?,-18%,2%
COc1cccc(CNC(=O)C2CCCN(c3nnc(-n4c(C)ccc4C)s3)C2)c1OC (stereo unspecified),3%[46.1 µM],-5.0%,12%,·,·,-19%,-17%[46.1 µM],·
COCCNC(=O)c1cccc(OC2CCN(Cc3ccccc3OCCO)CC2)c1,?,·,·,?,8%,-26%,3%[46.1 µM],22%
COc1ccccc1C(=O)Nc1c(C(=O)N(CCN(C)C)Cc2ccco2)oc2ccccc12,·,-3.6%,10%,23%,1%,?,29%[46.1 µM],-27%
c1ccc(-n2c(-c3cccs3)nc3nc4ccccc4nc32)cc1,0%,0.3%,-1%,-16%,-7%,0%,?,8%
Cc1ccc(S(=O)(=O)n2cnc3ccccc32)cc1,0%,-1.7%,-4%,22%,-13%,14%,2%,-6%
CC(C)(C)c1cc(NC(=O)COC(=O)C2CC2)n(-c2ccccc2)n1,5%[46.1 µM],1.5%,-6%,8%,0%,-3%,3%,-3%
COc1cc(CSC)nc(-c2ccccc2)n1,-7%[46.1 µM],·,·,-5%,-1%,-12%,-11%,·
O=C(CNC(=O)c1ccccc1)OCc1ccc([N+](=O)[O-])cc1,11%,-7.2%,3%,·,?,-6%,2%,10%
Cc1n[nH]c(C)c1N1C(=O)c2cccc3c(N4CCCCCC4)ccc(c23)C1=O,-23%&-23%,-15%,15%,15%,-2%,?,-10%,-9%
C=CCNC(=O)c1ccc(C)c(Br)c1,-5%&-5%,0.9%,3%,-21%,0%,-4%,-4%,-3%
COc1ccc(NC(=S)N2CCC(C(O)(c3ccccc3)c3ccccc3)CC2)cc1,?,-5.0%,9%,·,-2%,-4%,-21%,?
Cc1cccc(C)c1NC(=O)CNC(=O)Cc1c[nH]c2ccccc12,9%,·,·,-19%,13%,5%,9%,·
CCc1c(C(=O)NCc2cnn(C)c2)csc1C,-1%,0.6%,3%,2%,21%,-17%,8%,3%
COc1ccccc1CNC(=O)C1CCN(S(=O)(=O)N2CCCCC2)CC1,20%,3.2%,?,-8%,-2%,·,-11%,0%
Cc1cc(C)c(NC(=O)c2sc3nc(C)cc(C)c3c2N)c(C)c1,?,-3.1%,-17%,·,·,-1%,-23%[46.1 µM],·
C[N+]1=C(/C=C/Nc2ccccc2)C(C)(C)c2ccccc21,?,-15%,-21%,-12%,10%,-13%,?,-1%
COc1cccc(/C(O)=C2\C(=O)C(=O)N(c3ccccn3)C2c2cccc(OC)c2OC)c1 (stereo unspecified),6%,-2.8%,-9%,-4%,-5%,0%,1%,6%
CCOCCn1c(N2CCN(c3ccc(OC)cc3)CC2)nc2c1c(=O)[nH]c(=O)n2C,?,-1.0%,3%,15%,13%,-12%,-8%,-9%
CCOc1ccccc1N1CC(C(=O)NCCC2=CCCCC2)CC1=O (stereo unspecified),?,·,·,-11%,·,34%[activator],4%,·
CCCC(C(=O)NC(C)(C)C)N(Cc1ccccc1Cl)C(=O)c1snc(C(N)=O)c1N (stereo unspecified),·,·,·,-15%,-1%,-22%,·,-6%
Cc1cc(=O)[nH]c2c1c(C)nn2C1CCCCC1,-16%,0.3%,3%,15%,-1%,·,13%,1%
COc1cc2c(cc1OC)n(CC(=O)c1ccc(F)cc1)c(=O)n1nc(CCn3nc(C)cc3C)nc21,·,1.8%,-9%,·,·,-6%,?,·
CCCCNc1nc(Oc2ccc(=O)n(C)n2)nc(N2CCOCC2)n1,13%[46.1 µM],-0.4%,7%,·,·,-14%,22%[46.1 µM],·
C/C(=N\NC(=O)Cc1csc(N2CCOCC2)n1)c1ccc(Cl)c(Cl)c1,?,·,·,11%,0%,-14%,?,·
CC(C)(C)OC(=O)N1CCC(c2c(C(=O)N3CCN(c4ccccc4F)CC3)cnn2-c2ccccc2Cl)CC1,·,-1.5%,?,·,·,-23%,?,·
COc1ccc(F)cc1C(=O)C1CCCN(Cc2cccn2-c2cccnc2)C1 (stereo unspecified),·,·,·,-19%,-1%,0%,·,1%
COc1ccc(-c2csc(-c3cccs3)n2)cc1OC,?,·,·,-28%,-7%,0%,?,·
O=C1CN(C(=O)c2ccc(S(=O)(=O)N3CCCCC3)cc2)C(c2ccc(F)cc2)c2cc(Br)ccc2N1 (stereo unspecified),?,-2.1%,-19%,·,·,-21%,?,·
OCCSc1nc(N2CCOCC2)nc(N2CCOCC2)n1,?,·,·,-5%,6%,-1%,?,·
CCCCn1c(N)c(N(CC(C)C)C(=O)c2cccc(OCc3ccccc3)c2)c(=O)[nH]c1=O,-30%,·,·,-5%,-11%,1%,4%,·
C=CCn1c(O)c(C2=c3ccccc3=NC2=O)c2ccccc21,?,·,·,-15%,-33%,28µM*,?,-154%
COC(=O)CCN(C1CCCCC1)S(=O)(=O)c1ccc(S(=O)(=O)NC2CCCCC2)cc1,?,0.2%,6%,0%[3.69 µM],-8%,5%,-14%,-6%
O=[N+]([O-])c1cc(S(=O)(=O)NCCCN2CCOCC2)ccc1Cl,?,-2.5%,0%,13%,-2%,-5%,?,5%
CCC(CC)NCc1ccc(OC)cc1OC,20%,-4.6%,-11%,-18%,3%,-24%,17%,?
O=C(/C=C/c1ccc(Cl)c(Cl)c1)n1cccn1,9%,4.7%,0%,-17%,2%,-7%,-2%,0%
CCc1ccccc1NC(=O)COc1ccc(N2CC(C(N)=O)CC2=O)cc1 (stereo unspecified),?,·,·,1%,1%,0%,7%[46.1 µM],5%
COc1ccc(OC)c(CN2CCN(C(=O)COc3cccc(C)c3)CC2)c1,0%&0%,5.1%,9%,12%,5%,-19%,-1%,-3%
COCCNC(=O)C(=O)N/N=C(\C)CC(=O)Nc1ccc(Cl)cc1Cl,?,0.2%,-9%,6%,1%,-10%,-2%,19%
Cc1ccc(C(CNC(=O)c2ccc(Br)o2)N2CCN(C)CC2)cc1 (stereo unspecified),-19%,·,·,-16%,-1%,-15%,-11%,·
CCOC(=O)c1ccc(CNC(=O)Cn2nnc(-c3ccc(C)cc3)n2)o1,0%,-2.5%,-4%,-3%,-4%,6%,1%,4%
Nn1c(=S)[nH]nc(Cc2ccc(O)cc2)c1=O,-2%,-2.8%,-3%,25%,-7%,-8%,?,-6%
Cc1ccc(NC(=O)CCN2C(=O)CSC2=O)c(C)c1,-23%,1.5%,1%,2%,8%,-3%,10%,5%
Cc1ccc2c(c1)c1c(n2CC(O)Cn2c(C)nc3ccccc32)C(=O)CCC1 (stereo unspecified),-6%,-14%,4%,1%,-2%,?,·,-59%
O=C(Cn1c(-c2ccccc2)c[n+]2ccsc12)c1ccc(Br)cc1,-26%[46.1 µM],·,·,?,-1%,-12%,-1%,·
Cc1cccc(C)c1NC(=O)C1CCCN(S(=O)(=O)c2c(C)noc2/C=C/N(C)C)C1 (stereo unspecified),-9%[46.1 µM],-5.1%,25%,·,·,-15%,-3%[46.1 µM],·
Cc1ccc(CSCC(=O)Nc2cc(S(=O)(=O)N3CCOCC3)ccc2OC(C)C)cc1,?,·,·,-4%,2%,-16%,?,·
CCc1ccccc1NC(=O)c1ccc(-n2c(C)ccc2C)cc1,?,3.9%,-13%,-5%,-3%,-3%,?,9%
Cc1sc(NC(=O)c2ccco2)c(C(c2cccnc2)N2CCN(c3ccc(F)cc3)CC2)c1C (stereo unspecified),·,-9.9%,-26%,-2%,-17%,?,·,-68%
